Bioassay records: PubChem BioAssay, ICCB-Longwood Screening Facility, Harvard Medical School
BasE inh – BasE siderophore biosynthesis inhibition. purified BasE, fluorescence polarization binding displacement. inhibition, % (test concentration not listed). actives 0.1% (n = 84,000);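 active = both replicates above 25% with normal brightness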;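 note: 0% = negative plate control signal and 100% = positive plate control signal; stock transfer was 100 nL into about 30 µL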
KSHV LANA nucl – LANA-nucleosome interaction inhibition; actives 0.3% (n = 51,000); z-score (test concentration not listed); FITC-LANA1-23 / chicken nucleosome fluorescence polarization; active compounds read low;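 active = both repeat wells score below -2 in polarization z-score versus plate sample wells, excluding overly bright wells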;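 note: 100 nL library stock added to about 30 µL; numbers are from one replicate; some results filed as inactive read as strong as hits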
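Assay system: purified chicken nucleosomes with FITC-labelled LANA N-terminal peptide (1-23) / Probe or stimulus: 50 nM FITC-LANA1-23 probe / Compound dosing: pin-transferred compound, 100 nL / Times: compound with peptide–nucleosome mix 10–45 min at room temperature / Technique: fluorescence polarization, 480 nm excitation, 535 nm parallel and perpendicular emission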
Starred values were filed as active, the others as inactive; . = not tested or not shown. A portion of the library, so the mix of outcomes need not match the whole.

The opening 2 compounds (preview)
SMILES	BasE inh	KSHV LANA nucl
N#C/C(=C\c1ccc(-c2ccc(S(=O)(=O)N3CCOCC3)cc2)o1)C(=O)NC1CC1	0.7	.
CC(=O)NCCN1C(=O)S/C(=C\c2cccs2)C1=O	-0.2	.

Main list (from the top)
SMILES	BasE inh	KSHV LANA nucl
N#C/C(=C\c1ccc(-c2ccc(S(=O)(=O)N3CCOCC3)cc2)o1)C(=O)NC1CC1	0.7	.
CC(=O)NCCN1C(=O)S/C(=C\c2cccs2)C1=O	-0.2	.
NC1=NC2(CCSC2)n2c(nc3ccccc32)N1 (configuration not stated)	-1.9	.
O=C1NC(=Nc2ccccc2)S/C1=C\c1ccc(C(=O)O)cc1	0.4	-0.54
CC(=O)Oc1ccc(N(C(C)=O)S(=O)(=O)c2cccs2)c(C)c1	5.5	.
Cc1ccc(NC(=O)CSc2nc(=O)cc(N)n2Cc2ccco2)cc1	-2.8	1.2
C=CCn1c(Cc2ccccc2)nnc1SCC(=O)N1CCc2ccccc21	1.9	-0.18
Cc1nn2c(CN(C(=O)c3ccco3)c3ccccc3)nnc2c2ccccc12	-1.6	0.2
O=C(/C=C/c1ccco1)OCCN1C(=O)c2ccccc2C1=O	1.8	.
CCOC(=O)c1oc2ccccc2c1Cn1ncc(Cl)c(Cl)c1=O	0.5	.
CNC(=O)c1ccccc1NC(=O)CC1(CC(=O)O)CCCCC1	-0.5	.
CCc1ccc(-c2csc(Nc3ccc(S(=O)(=O)Nc4cc(OC)nc(OC)n4)cc3)n2)cc1	2.5	.
O=C(c1cccnc1NCCc1ccccc1)N1CCCC1	-0.8	-0.18
CN(N)c1nc(-c2ccccc2)cc(-c2ccccc2)n1	-0.8	-0.041
CCCOc1ccc2oc(=O)c3c(c2c1)CCCN3C(=O)CN1CC(C)CC(C)C1 (configuration not stated)	2.3	-0.1
Fc1c(F)c(-n2cccn2)c(F)c(F)c1-c1c(F)c(F)c(-n2cccn2)c(F)c1F	1.1	0.54
CCC1(C)Cc2c(sc3nc4n(c(=O)c23)CCCS4)CO1 (configuration not stated)	0.0	0.11
Nc1ccccc1CN1CCCC1	2.0	-0.6
COCc1nc2c([nH]1)c(=O)n(C)c(=O)n2CC(C)C	0.8	0.0095
c1nnc(-c2ccc3c(c2)OCO3)o1	0.2	.
Cn1cc(S(=O)(=O)N2CCOCC2)cc1C(=O)N1CCN(c2cccc(C(F)(F)F)c2)CC1	-1.2	1.1
Cc1cccc(OCC(=O)N2CCCc3ccccc32)c1	9.8	.
Cc1cccc(CC(=O)Nc2c(C(N)=O)oc3ccccc23)c1	1.1	-1.2
CCN(CC)C(=O)Cn1cnc2c(cnn2-c2cccc(Cl)c2)c1=O	0.2	-0.64
CS(=O)(=O)c1ccc(NC(=O)Cc2n[nH]c(=O)c3ccccc23)cc1	-0.7	.

4 entries from above, with values under each structure:
Values run as follows: BasE inh, KSHV LANA nucl
- Cc1cccc(OCC(=O)N2CCCc3ccccc32)c1
    9.8, .
- Cc1cccc(CC(=O)Nc2c(C(N)=O)oc3ccccc23)c1
    1.1, -1.2
- CCN(CC)C(=O)Cn1cnc2c(cnn2-c2cccc(Cl)c2)c1=O
    0.2, -0.64
- CS(=O)(=O)c1ccc(NC(=O)Cc2n[nH]c(=O)c3ccccc23)cc1
    -0.7, .

(more compounds)
SMILES	BasE inh	KSHV LANA nucl
Cc1ccc(NC(=O)N(C)CCOc2ccccc2)cc1	1.9	.
CCC(c1nc2ccccc2c(=O)n1CCCn1ccnc1)N1C(=O)c2ccccc2C1=O (configuration not stated)	1.1	-0.34
O=C(NCc1ccccc1)c1ccc(=O)[nH]n1	1.5	-1.5
Cc1nc(Cc2nnc(SCC(=O)Nc3ccc(S(=O)(=O)N4CCCC4)cc3)o2)cs1	0.9	.
COC(=O)N[C@H](C(=O)N[C@@H](Cc1ccccc1)[C@@H](O)CN(Cc1ccc(-c2ccccn2)cc1)NC(=O)[C@@H](NC(=O)OC)C(C)(C)C)C(C)(C)C	.	-0.062
Cn1cc(/C=N/NC(=O)C(O)c2ccccc2)c2ccccc21 (configuration not stated)	-2.9	2.7
O=C(CSc1nc2c(oc3ccccc32)c(=O)n1C1CCCC1)Nc1nccs1	0.1	-2.1
O=C(CSc1ncc(CO)n1Cc1ccccc1)N1CCc2ccccc21	1.2	-0.44
CN(C)CCN(C)Cc1ccccc1	0.5	-1.1
CN(CC(=O)NN1C(=O)NC2(CCCCC2)C1=O)Cc1ccc(Cl)cc1	-5.3	.
CCOC(=O)c1ccc(NC(=O)CON=c2c(C)nc3ccccc3nc2C)cc1	-2.1	.
O=C(NCCCN1CCCC1)c1ccccc1Cl	0.4	-0.81
Nc1nc2ccccc2cc1S(=O)(=O)c1ccccc1	.	-1.5
CC1CC(C)CN(C(=S)Nc2ccccc2)C1 (configuration not stated)	0.1	-0.24
CCOC(=O)c1oc2ccccc2c1CN1CCSC1=Nc1ccc(OC)cc1	3.9	.
CCCNc1c(NS(=O)(=O)c2ccc(NC(=O)CC)cc2)c(=O)oc2ccccc12	-0.4	0.32
CC(C)n1cc(/C=C(\C#N)S(=O)(=O)c2ccccc2)c2ccccc21	1.7	0.31
Cc1ccc(NC(=O)NC2CC2)cc1C	2.4	0.28
Cc1oc2c(CN(C)C)c(O)ccc2c(=O)c1-c1ccccc1Cl	0.3	.
CCN1/C(=C/C2=CC(=O)CC(C)(C)C2)Sc2ccccc21	-66	.
CCc1ccc(NC(=O)Cc2csc(C)n2)cc1	-1.0	-0.52
C=CCNc1nc(C(=O)OCc2c(C)noc2C)cs1	0.6	.
Cc1ccc(S(=O)(=O)N2CCN(C(C)CC(=O)O)CC2)cc1 (configuration not stated)	0.3	.
CCOc1ccc2nc(SCC(=O)NC3CC3)sc2c1	4.0	-0.41
COc1ccccc1NC(=O)C1CCN(C(=O)c2ccccc2)CC1	1.0	-0.47
(more compounds)
SMILES	BasE inh	KSHV LANA nucl
Cn1c(Cn2c(=O)sc3ccccc32)nnc1SCC(=O)Nc1ccc2c(c1)OCO2	-1.4	1.1
COc1ccc(CCNS(=O)(=O)c2c(C)cc(C)c(-n3cnnn3)c2C)cc1OC	0.3	-0.68
CN(Cc1ccccc1)C(=O)CSc1ncn[nH]1	-0.5	.
COc1ccc(OCc2nnco2)cc1	-2.2	1.4
O=C(NC1CCCCCC1)c1cccc(-n2cnnc2)c1	1.0	-0.55
CN(C)S(=O)(=O)c1ccc(C(=O)NCc2nc3ccccc3n2C)cc1	0.1	.
N#Cc1c(N2CCN(C=O)CC2)nc(N)c2c(N)nc3c(c12)CC(=O)N3Cc1cccs1	0.9	.
C=CCN=c1scc(-c2ccccc2)n1/N=C/c1ccc(O)cc1O	-1.2	.
O=c1nc(Nc2ccccc2)cn[nH]1	2.5	-0.81
CC(C)COc1ccc2c(c1)c1c3c([n+](C)ccn32)CCC1	9.1	.
COC(=O)c1cc(OC)c(OC)cc1NC(=O)C(C)C	1.6	.
COC(=O)c1c(C)[nH]c(C(=O)C(C)Sc2nnc(-c3ccccc3)o2)c1C (configuration not stated)	-0.8	.
CC(C)(C)N(Cc1ccccc1)C(=O)CSc1nncs1	3.8	.
Cc1ccc(C(=O)NCCc2cn3ccccc3n2)cc1	-2.6	3.2
NC(=O)c1ccc[n+](CC(=O)N2CCCCC2)c1	-0.2	.
c1ccc(-c2nc(-c3cccnc3)no2)cc1	1.2	-0.38
O=P(OCC1CC1)(c1ccccc1)c1ccccc1	1.6	-0.13
CC(=C(C#N)C#N)c1ccc2c(c1)OCO2	3.8	.
CN1C(=O)CS/C1=C\C(=O)C(C)(C)C	1.3	.
Cc1ccc(C2N(Cc3ccccc3)CCCN2Cc2ccccc2)o1	2.6	0.54
CCCC1Cc2[nH]c(=O)c(C(=O)O)cc2CO1 (configuration not stated)	0.8	-0.43
COC(=O)c1cc(OC)c(OC)cc1NC(=O)CSc1nnnn1-c1ccccc1OC	-4.4	1.5
O=C(O)CCc1cnn(-c2ccccc2)c1	0.9	.
Cc1ccc2c(Cn3nnc4ccccc4c3=O)cc(=O)oc2c1	-0.1	.
O=C(Nc1cccc2c1CCCC2)N1CCC(CN2CCCCC2)CC1	-1.4	-0.16
Remaining list, next part
SMILES	BasE inh	KSHV LANA nucl
CC1(C)CC(=O)C2=C(C1)Nc1[nH]c(=S)[nH]c(=O)c1C2c1ccc(O)cc1 (configuration not stated)	-2.5	1.5
COc1ccccc1OC(=O)C1CCCCC1	1.6	-1.2
Cc1ccc(CN2CC(C(=O)NCC(=O)OCc3ccccc3)CC2=O)cc1 (configuration not stated)	1.1	.
CCN(CC)C(=O)c1ccccc1OC	0.1	2.3
COC(=O)CNc1nc(C2CC2)nc2c1nnn2Cc1ccccc1Cl	-1.8	-0.49
c1ccc(CN2CCCN(Cc3ccccc3)C2c2cccs2)cc1	-5.0	2.2
COC(=O)c1cc(S(=O)(=O)NCC2CCN(Cc3ccc(Cl)cc3)CC2)cn1C	0.3	0.017
CC(=O)N/N=C(/c1ccccc1)C(O)c1ccccc1 (configuration not stated)	2.3	-0.54
CCOC(=O)c1c(C)oc2c1c(C(c1ccc(OC)cc1)N1CCOCC1)c(O)c1ccccc12 (configuration not stated)	1.3	.
Cc1ccsc1CN(C)CC(=O)NC1CCCC1	3.4	.
CN1/C(=C2\C=NN(C)P2(=O)N2CCCCCC2)C(C)(C)c2ccccc21 (configuration not stated)	-0.7	.
N#CCCO/N=C/c1ccco1	-0.4	-0.53
CCOC(=O)Cc1csc(NC(=O)C(C)(C)C)n1	1.6	0.82
Cc1nnc(NC(=O)c2nc3nccc(C)n3n2)o1	0.3	.
CC(C)(C)c1ccc(-c2nnc(-c3ccccc3NC(=O)/C=C\C(=O)O)o2)cc1	3.1	.
CNCc1nnc(-c2ccccc2)o1	2.1	-0.18
O=C(Cn1cnc2ccccc2c1=O)Nc1ccccc1C(=O)NCc1ccc2c(c1)OCO2	0.1	.
CCn1c(-c2ccc(C(C)(C)C)cc2)n[nH]c1=S	-1.4	1.2
O=C(OCCS(=O)(=O)c1ccc(C(F)(F)F)cn1)c1ccc(Cl)c(Cl)c1	1.1	.
O=C(CN1CCC(N2CCCCC2)CC1)c1ccc(F)cc1	1.8	-0.37
CCOC(=O)c1sc(N)c(C(=O)OCC)c1COC(=O)c1cnc(C)cn1	0.4	.
COc1ccc(CNC(=O)CCc2nnc3ccc(NCCCN4CCCC4=O)nn23)cc1	-1.3	-1.8
CCn1cc(C(=O)NC(=S)Nc2sc3c(c2C(=O)OC)CCCCCC3)cn1	2.1	-0.16
COC(=O)c1ccc(NC(=O)CC2Sc3ccc(C(F)(F)F)cc3NC2=O)cc1 (configuration not stated)	0.6	.
CC(C)(C)C(=O)NC(C(=O)O)C12CC3CC(CC(C3)C1)C2 (configuration not stated)	0.8	.

As entered above.
Value of Cc1nnc(NC(=O)c2nc3nccc(C)n3n2)o1 in BasE inh: 0.3
Value of CCN(CC)C(=O)c1ccccc1OC in BasE inh: 0.1

(more compounds)
SMILES	BasE inh	KSHV LANA nucl
COc1ccccc1OC(C)C(=O)N1CCN(C/C=C/c2ccccc2)CC1 (configuration not stated)	1.0	-1.3
Cc1ccc(N/C=C2/Cn3cccc3C2=O)cc1	5.2	.
O=C(O)c1nn(Cc2coc(-c3cccs3)n2)c(=O)c2ccccc12	-1.4	.
COc1ccccc1C(=O)Nc1cc2[nH]c(=O)[nH]c2cc1C	0.8	-0.037
COc1ccc(OCCOC(=O)c2ccc(SC)cc2OC)cc1	-1.3	.
O=C(OCC(=O)N1CCCC1)c1cc(Cl)ccc1Cl	1.4	.
O=C(CCC1COc2ccccc2O1)NC1CCCCC1 (configuration not stated)	-2.3	1.8
O=S(=O)(NC1CC1)c1ccc(F)cc1	-3.6	.
COC(=O)c1ccc(OC(=O)c2ccc(Br)o2)cc1	0.8	-0.56
Cn1c(=NC(=O)C2=NN(C3CCS(=O)(=O)C3)C(=O)CC2)sc2ccccc21 (configuration not stated)	4.2	.
CCCNC(=O)C(C)N (configuration not stated)	-0.8	.
N#CC1=C(N)OC2=C(C(=O)CCC2)C1c1ccoc1 (configuration not stated)	-2.5	-0.33
COC(CNC(=O)CN1C(=O)/C(=C/c2ccccc2F)Oc2ccccc21)OC	2.7	-0.3
N/C(=N\O)c1ccsc1	1.3	.
CC(C)COc1ccc(CC(C#N)C(=O)O)cc1Cl (configuration not stated)	-0.3	-0.55
Nc1c(C(=O)Nc2ccccc2C(F)(F)F)sc2[nH]c(=O)c(C(=O)O)cc12	2.8	0.33
O=c1[nH]nc(SCc2csc(-c3ccccc3)n2)n1Cc1ccccc1	1.4	.
CC(C)Oc1cc(N)c(Cl)cc1Cl	.	-1
CC1CCN(C(=O)CSCC(=O)O)CC1	-1.8	-0.35
CCN(CC)Cc1c(O)ccc2occ(C(=O)c3ccccc3)c12	0.5	-0.89
O=C(CCc1ccccc1)NNc1ccc(F)cc1	-1.8	0.59
CC(=O)N1CN(Cc2cccnc2)Cc2c1sc1c2CCCC1	4.0	.
O=C1C2C3C=CC(C3)C2C(=O)N1c1ccc(Cl)cc1 (configuration not stated)	-1.7	-0.65
Clc1ccc(-c2nn(-c3ccccc3)cc2C=NCc2ccco2)cc1	0.3	.
COc1ccc(C(=O)Nc2sc3c(c2C(=O)NCc2ccco2)CCCC3)cc1OC	2.8	-0.7
CCOc1ccc(NC(=S)N2CC(O)CC2C(N)=O)cc1 (configuration not stated)	0.8	.

Profiles from above.
Profile of COc1ccc(OCCOC(=O)c2ccc(SC)cc2OC)cc1 → BasE inh: -1.3; KSHV LANA nucl: .
Profile of CC1CCN(C(=O)CSCC(=O)O)CC1 → BasE inh: -1.8; KSHV LANA nucl: -0.35
Profile of O=C1C2C3C=CC(C3)C2C(=O)N1c1ccc(Cl)cc1 (configuration not stated) → BasE inh: -1.7; KSHV LANA nucl: -0.65
